Compound activity deposited in PubChem by National Center for Advancing Translational Sciences (NCATS).
miR-21 FLuc: miR-21 reporter, rising signal | Potency, µM (highest dose often 38.3 µM), for inactives: top-dose reporter change, positive = more light | 340,000 tested, under 10 active | HeLa miR-21 FLuc reporter, luciferase, 48 h | AID 2288; active = well fitted rising curve with a large enough effect; inconclusive = small, poorly fitted or top-dose-only effect; inactive = no such curve, though single readings can be large or run the other way;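 also: % of control where 0% means no effect; miR-21 action dims this reporter so a rising signal means less miR-21 action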
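HeLa cells stably expressing CMV-driven firefly luciferase with a downstream miR-21 binding sequence, endogenously expressing miR-21, were treated with titrations (up to about 40uM final) for 48 hours at 37 degree Celsius. Luciferase luminescence was read after lysis.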
* hit, by the source's call; ? = inconclusive; [ ] = dose if it differs, or a comment.

SMILES	miR-21 FLuc
CCOC(=O)Cn1c(=O)n(C2CCCCC2)c2nc(-c3ccc(C(C)C)cc3)nc(C(N)=O)c21	-0.8%
COc1ccccc1NC(=O)c1cc2c(C)nn(-c3ccccc3)c2s1	12.9%
Clc1ccc(-c2nc3c4cnn(-c5ccccc5Br)c4ncn3n2)c(Cl)c1	-12.2%
Cc1ccc(C)c(CNC(=O)CN2C(=O)CSc3ccc(S(=O)(=O)N(C)C)cc32)c1	-4.3%
NC(=O)c1ccccc1NC(=O)CN1c2ccccc2S(=O)(=O)c2ccccc21	-1.4%
COc1ccc2nc3sc(C(=O)NCCc4ccc(Cl)cc4)cc3cc2c1	3.2%
COc1cccc(C(=O)Nc2ccc3oc(-c4cccc5c(Br)cccc45)nc3c2)c1	0.9%
Cc1ccc(CN(C(=O)COc2ccc(C(C)C)cc2)C2CCS(=O)(=O)C2)o1 (stereo not given)	10.7%
CCc1ccc(CNC(=O)c2c(C)oc3ncnc(N4CCOCC4)c23)cc1	?
Cc1ccc(-n2nnnc2CNC(=O)c2cc(C(F)(F)F)cc(C(F)(F)F)c2)cc1C	-8.2%
COc1ccc(-c2cc(C(F)(F)F)n3nc(C(=O)Nc4cc(Cl)cc(Cl)c4)cc3n2)cc1	-0.6%
COC(=O)c1c(-c2cccs2)csc1NC(=O)c1ccc(C(C)(C)C)cc1	-9.2%
CCOc1ccccc1NC(=O)c1c(C)cc(C)nc1SCC(=O)c1cccc(OC)c1	0.2%
Cc1ccc(CCNC(=O)c2c(C)oc3ncn(CC(C)C)c(=O)c23)cc1	-1.4%
Cc1cc(C)c2c(=O)c3c(oc2c1)C(=O)N(Cc1ccc(F)cc1)C3c1cccc(O)c1 (stereo not given)	?
Cc1ccc(S(=O)(=O)c2[nH]c(-c3ccccc3)nc2SCCC(=O)O)cc1	-0.8%
CC(=O)c1cccc(NC(=O)c2cc(C)nc3c2c(C)nn3-c2cccc(Cl)c2C)c1	0.3%
COc1cc(OC)c(NC(=O)Cn2cnc3sc(C)c(S(=O)(=O)N4CCN(C)CC4)c3c2=O)cc1Cl	4.3%
COc1ccccc1CN1CCC(CNC(=O)c2cnn(-c3ccc(Cl)cc3)c2C2CCN(C(=O)OC(C)(C)C)CC2)CC1	?
CCC(=O)C1=C(c2ccc(OC)c(OC)c2)N(C(=O)CC)n2c(nnc2-c2ccc(C)cc2)S1	11.3%
CC(=O)N1CCCC1c1nc2ccccc2n1Cc1c(F)cccc1Cl (stereo not given)	-7.6%
CCc1ccc(OCC(=O)N(Cc2ccco2)Cc2ccccc2Cl)cc1	8.5%
CCN1C(C(=O)c2ccccc2)=C(OC(=O)COc2ccccc2)c2ccccc2S1(=O)=O	?
Cc1ccc(Cl)cc1NC(=O)CN1C(=O)c2cccc3cccc1c23	-0.8%
COc1ccc(NC(=O)c2c(NCc3cccs3)sc3c2CCCCC3)c(OC)c1	-15.7%
COc1ccccc1CNC(=O)c1ccc(-n2c(C)cc3c2CCCC3)cc1	25.9%
COc1ccccc1/C=C/C(=O)Nc1nc2n(n1)C(c1ccc(F)cc1)C=C(c1ccccc1)N2 (stereo not given)	?
CC1CCN(S(=O)(=O)c2cc(C(=O)NCCc3ccccc3)n(C)c2)CC1	10.7%
Cc1ccc(NC(=O)C(=O)NCC(c2cccnc2)N2CCN(Cc3ccccc3)CC2)cc1Cl (stereo not given)	-21.6%
Cc1ccc(C)c(CN2CCC(CNC(=O)Cn3ncc4c([nH]c5ccccc54)c3=O)CC2)c1	-0.2%
COc1ccc(NC(=O)C2CCC(CNS(=O)(=O)c3ccc4c(c3)C(C)(C)C(=O)N4C)CC2)cc1 (stereo not given)	-0.6%
COc1ccc(C(CC(=O)Nc2ccc(OC)c(OC)c2)N2Cc3ccccc3C2=O)cc1 (stereo not given)	-4.7%
COc1ccc(-c2cnc(C)o2)cc1S(=O)(=O)Nc1ccc(OC(F)(F)F)cc1	3.1%
COc1ccc(Nc2c(-c3ccc(C)o3)nc3cc(C)ccn23)cc1	-33.4%
CCOC(=O)c1c(C)oc2nc(C)nc(N3CCN(c4ccc(OC)cc4)CC3)c12	?
CCOC(=O)c1c(NC(C)=O)c2c3c(sc2n1Cc1c(C)cc(C)cc1C)CCCC3	0.9%
CC(C)CCNC(=O)CSc1c2c(nc3ccc(Cl)cc13)CCCC2	24.0%
CCN(c1ccccc1)S(=O)(=O)c1ccc(NC(=O)c2cc(=O)c3c(C)cc(C)cc3o2)cc1	-0.9%
CCOc1ccc(NC(=O)CSc2nccn2C2CCCC2)cc1	-3.8%
Cc1cccc(-n2ncc3c(N4CCN(CCO)CC4)ncnc32)c1	-48.8%
O=C(COc1ccccc1Cl)Nc1nc2c(s1)CCCC2	-12.9%
Cc1cccn2c(=O)cc(COc3cccc(NC(=O)c4ccccc4F)c3)nc12	-5.1%
Cc1c(C(=O)OC2CCC(C)CC2)[nH]c2c1C(=O)CC(c1ccccc1Cl)C2 (stereo not given)	2.5%
COc1ccccc1C(c1c(O)cc(C)n(Cc2ccco2)c1=O)N1CCCCC1 (stereo not given)	2.2%
Cc1cccc(C(=O)Nc2cc3c(cc2N2CCCCC2)n(C)c(=O)c(=O)n3C)c1	-1.9%
O=C(Cn1cnc2nc3c(cc2c1=O)CCCC3)Nc1ccc(F)cc1Cl	-2.4%
COc1ccc(OC)c(CCNC(=O)c2sc3nc4n(c(=O)c3c2C)CCCC4)c1	-6.4%
CSc1ncc(Cl)c(C(=O)Nc2ccc(S(=O)(=O)N3CCCC(C)C3)cc2)n1 (stereo not given)	?
CN(C(=O)CSc1cn(CC(=O)N2CCCCC2)c2ccccc12)c1ccccc1	-0.3%
Cc1cc(C)n2nc(CNC(=O)c3ccccc3Cl)nc2n1	3.7%
O=C(c1ccc2c(c1)N(Cc1cccc(F)c1)C(=O)c1ccccc1S2)N1CCOCC1	0.1%
CCCCn1c(=NC(=O)c2cc3ccccc3o2)c(C(=O)OCC)cc2c(=O)n3ccccc3nc21	6.6%
CCc1ccc(NC(=O)CC(c2cc(OC)c(OC)c(OC)c2)N2Cc3ccccc3C2=O)cc1 (stereo not given)	-6.6%
CCC(C(=O)Nc1ccc(C)c(C)c1)n1c(=O)c(C(F)(F)F)nc2ccccc21 (stereo not given)	-1.1%
COc1ccc(OCC(=O)NCC(c2ccc(OC)cc2)N2CCOCC2)cc1 (stereo not given)	-12.1%
Cc1cccc(C)c1OCCCCn1c(C2CC(=O)N(c3ccc(F)cc3)C2)nc2ccccc21 (stereo not given)	?
Nc1c(C(=O)Nc2cccc(C(F)(F)F)c2)c2ccccn2c1C(=O)c1ccccc1	0.0%
CCn1ccc2cc(S(=O)(=O)N3CCCN(C(=O)Nc4ccc(C)cc4Cl)CC3)ccc21	-0.5%
COc1ccc(-c2cn3cccnc3n2)cc1NC(=O)Nc1ccc(Cl)cc1	-0.5%
COc1ccc([C@]23Cc4cc(OC)c(OC)cc4C(O2)c2c(cc(C)n(Cc4ccccc4)c2=O)O3)cc1	-28.5%[7.66 µM]
(next part)
SMILES	miR-21 FLuc
Cc1ccc2nc(-c3ccc(NC(=O)COc4ccccc4)cc3)sc2c1	-57.1%
CCC(=O)N1CCc2cc(Br)cc(S(=O)(=O)CCC(=O)NCCc3cccc(C)c3)c21	-0.5%
Cc1cccc(-n2c(-c3ccccc3)cn3c4c(=O)[nH]c(=O)n(C)c4nc23)c1	-6.4%
CCOC(=O)CNC(c1ccccc1)c1cc(Br)ccc1NC(=O)c1cccc(Cl)c1 (stereo not given)	16.2%
CC(C)c1ccc(NC(=O)CCNS(=O)(=O)c2ccc3c(c2)oc(=O)n3C)cc1	-1.5%
O=C(NCc1ccccc1F)C(=O)NCC(c1ccc2c(c1)OCO2)N1CCOCC1 (stereo not given)	-1.6%
CCS(=O)(=O)N1CCCc2cc(C(=O)Nc3cc([N+](=O)[O-])ccc3C)ccc21	10.5%
Cn1c(=O)oc2cc(S(=O)(=O)N3CCCC(C(=O)N4CCN(c5ccc(Cl)cc5)CC4)C3)ccc21 (stereo not given)	2.7%
COc1ccccc1C(=O)NC1(C(F)(F)F)C(=O)Nc2c1c(=O)[nH]c(=O)n2CCc1ccccc1 (stereo not given)	-1.7%
COc1ccc(CCNC(=O)CCCn2c(=O)c3ccccc3n(Cc3ccccc3C)c2=O)cc1OC	-2.9%
O=C(Cc1ccc(NC(=O)N2CCSc3ncccc32)cc1)NCc1ccccc1Cl	-0.3%
Cc1c(C(=O)OC2CCCC2)[nH]c2c1C(=O)CC(c1ccc(C(C)(C)C)cc1)C2 (stereo not given)	-14.5%

Some of these compounds in order of SMILES length, largest number first:
SMILES	miR-21 FLuc
Cn1c(=O)oc2cc(S(=O)(=O)N3CCCC(C(=O)N4CCN(c5ccc(Cl)cc5)CC4)C3)ccc21 (stereo not given)	2.7%
COc1ccccc1C(=O)NC1(C(F)(F)F)C(=O)Nc2c1c(=O)[nH]c(=O)n2CCc1ccccc1 (stereo not given)	-1.7%
Cc1cccc(-n2c(-c3ccccc3)cn3c4c(=O)[nH]c(=O)n(C)c4nc23)c1	-6.4%
O=C(Cc1ccc(NC(=O)N2CCSc3ncccc32)cc1)NCc1ccccc1Cl	-0.3%

Continuation.
SMILES	miR-21 FLuc
CN1CCc2nc3sc(C(=O)Nc4c(F)cccc4F)c(N)c3cc2C1	-12.8%
Cc1c(Cl)cccc1NS(=O)(=O)c1ccc2[nH]cc(C(=O)NC3CCCC3)c(=O)c2c1	7.2%
COc1cccc(Nc2sc(C(=O)c3ccc(F)cc3)c(N)c2C(=O)NCc2ccc(C)cc2)c1	?
CCOc1ccc(OCC)c(NS(=O)(=O)c2ccc3c(c2)CCCN3C(C)=O)c1	0.3%
CCCCn1c(NCc2cc(Br)ccc2O)nc2ccccc21	27.6%
CCCCNC(=O)c1ccc(-c2nc(CN3CCc4ccccc43)c(C)o2)cc1	7.8%
Cc1cccc(C(=O)N(Cc2nc(-c3ccc(Cl)cc3)no2)C(C)C)c1	28.6%
CC1CCc2c(sc3nnn(CCCCOc4ccc(Cl)cc4)c(=O)c23)C1 (stereo not given)	-3.9%
COc1ccc(-n2ncc(C(=O)NCCc3ccsc3)c2C2CCN(C(=O)OC(C)(C)C)CC2)cc1	?
Cc1cc(Cl)ccc1-n1c(CCC(=O)O)ccc1-c1cccs1	-5.2%
Cc1cccc(NC(=O)CN2c3ccccc3S(=O)(=O)c3ccccc32)c1C	18.2%
COc1cccc(C(=O)NC(=O)Nc2ccc(-n3nc(C(F)(F)F)cc3C(F)(F)F)cc2)c1	0.1%
CCOC(=O)Cc1ccc(NC(=O)N(Cc2ccc(CC)cc2)Cc2cn[nH]c2-c2ccc(OC)cc2)cc1	3.2%
N#Cc1ccccc1NC(=O)C(=O)NCCc1csc(-c2ccc(C(F)(F)F)cc2)n1	1.8%
CCC(Sc1nncn2c1cc1occc12)C(=O)Nc1ccc(C)c(Cl)c1 (stereo not given)	1.2%
COc1ccccc1N1CCN(S(=O)(=O)CCNC(=O)COc2ccc(F)cc2)CC1	21.0%
CCOc1ccccc1N1CC(c2nc3ccccc3n2CCOc2ccc(OC)cc2)CC1=O (stereo not given)	0.4%
Cc1ccc(CCNc2ncnc3onc(C)c23)cc1	19.9%
Cc1ccc(C2=CC(c3ccccc3F)n3c(nc4ccccc43)N2)cc1C (stereo not given)	9.1%
Cc1oc(-c2cccc(Br)c2)nc1CN1CCC(C(=O)NCCc2ccc(Cl)cc2)CC1	0.2%
O=C(Nc1ccc(Cl)cc1)c1cc(S(=O)(=O)N2CCc3ccccc32)ccc1F	15.6%
CCn1cc(S(=O)(=O)c2ccc(C)cc2)c(=O)c2cc(F)c(N3CCCCCC3)cc21	-1.3%
O=C(Cn1cc(S(=O)(=O)Cc2ccc(F)cc2)c2ccccc21)NCc1ccccc1Cl	-5.5%
COc1cccc(CNC(=O)c2ccc3oc(=O)n(Cc4ccccc4)c3c2)c1	8.5%

Looked up by structure from the list above, 5 records:
SMILES	miR-21 FLuc
Cc1oc(-c2cccc(Br)c2)nc1CN1CCC(C(=O)NCCc2ccc(Cl)cc2)CC1	0.2%
O=C(Cn1cc(S(=O)(=O)Cc2ccc(F)cc2)c2ccccc21)NCc1ccccc1Cl	-5.5%
O=C(Nc1ccc(Cl)cc1)c1cc(S(=O)(=O)N2CCc3ccccc32)ccc1F	15.6%
COc1ccccc1N1CCN(S(=O)(=O)CCNC(=O)COc2ccc(F)cc2)CC1	21.0%
CCC(Sc1nncn2c1cc1occc12)C(=O)Nc1ccc(C)c(Cl)c1 (stereo not given)	1.2%

Next part:
SMILES	miR-21 FLuc
COc1ccc(Cl)cc1NC(=O)CSc1nc(=O)[nH]c2c1CCCC2	3.7%
C#CCOc1ccc(-c2nnc(Nc3ccc(NC(C)=O)cc3)c3ccccc23)cc1	7.8%
COc1ccc(CNCCSc2nnnn2-c2ccccc2)c(OC)c1	-6.3%
COc1ccc(-c2nc(Cn3c(SCc4ccccc4F)nc4cccnc43)c(C)o2)cc1	-8.5%
CCc1ccccc1N(C)S(=O)(=O)c1ccc2[nH]cc(C(=O)NCCOC)c(=O)c2c1	8.5%
Cc1ccc(S(=O)(=O)CC(=O)N2CCN(c3nc4c(F)cccc4s3)CC2)cc1	27.7%
CC1=C(C(=O)Nc2cc(Cl)ccc2C)C(c2sccc2C)n2ncnc2N1 (stereo not given)	-3.2%
CCOC(=O)c1cc(OC(=O)c2cc(OC)c(OC)c(OC)c2)n(-c2ccccc2)n1	1.8%
COc1ccc(NC(=O)c2cc(C(C)=O)n3ccccc23)cc1	-24.5%
O=C(CSc1nc(=O)n(Cc2ccccn2)c2c1CCC2)Nc1ccccc1	-0.6%
CC(C)Cn1c(-c2ccc(S(=O)(=O)N3CCCC3)cc2)csc1=Nc1ccccc1	?
O=C(Cn1c(=O)n(-c2ccc(Cl)cc2)c(=O)c2sc3ccccc3c21)NC1CCCC1	0.6%
Cc1ccc2c(CNC3CCCCC3)c(C(=O)O)n(Cc3ccc(F)cc3)c2c1	-6.2%
COc1ccc(OCC(=O)N2CCC(c3nc4ccccc4s3)CC2)cc1	8.7%
CCOC(=O)C1=C(CN(C)Cc2ccccc2)NC(=O)NC1c1ccc(OC(C)C)cc1 (stereo not given)	19.4%

An excerpt. The share of hits here may be higher or lower than overall.
